Screens (PubChem)
Cruzain inh noDet: cruzain (T. cruzi) inhibition without detergent; P25779; purified cruzain, Z-FR-AMC fluorescence, no detergent; Potency, µM, inactives show max response, negative = inhibition, hits mostly inhibitors; hit rate 2.3% among 200,000;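 note: plate controls were enzyme without inhibitor for no effect and buffer without enzyme for full effect; nearly all actives have a fitted effect of over 40% in size; top concentration of the series not given in the record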
Target sequence (P25779 123-467 limits assumed): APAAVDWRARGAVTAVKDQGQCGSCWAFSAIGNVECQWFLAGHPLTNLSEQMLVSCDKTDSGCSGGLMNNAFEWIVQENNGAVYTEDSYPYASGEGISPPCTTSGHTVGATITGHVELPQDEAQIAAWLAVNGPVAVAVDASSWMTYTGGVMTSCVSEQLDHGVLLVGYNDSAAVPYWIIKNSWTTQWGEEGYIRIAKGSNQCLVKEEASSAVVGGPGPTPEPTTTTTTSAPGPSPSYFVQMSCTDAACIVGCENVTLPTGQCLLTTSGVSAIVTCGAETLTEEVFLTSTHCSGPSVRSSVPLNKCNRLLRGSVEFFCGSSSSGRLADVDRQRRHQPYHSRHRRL
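Detergent-free condition (0.00005% Triton X-100) in acetate buffer pH 5.5 with DTT. 1.5 nM enzyme and compound were pre-mixed 15 min, then 2 uM Z-FR-AMC substrate added; reaction progress from fluorescence change between first and third reads (60 s).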
StopGo reporter: lowers the luciferase signal of an FMDV 2A StopGo reporter | human cells with a luciferase reporter of 2A StopGo recoding; control for the full effect not named in the record | Potency, µM (doses to about 57.9 µM), without a hit: top-dose signal change, negative = less light | hit rate 1.2% among 410,000 | AID 1159524; active = well fitted falling curve with a large enough effect; inconclusive = small, poorly fitted or top-dose-only effect; inactive = no such curve, though single readings can be large or run the other way; tested in HEK293T cells; note: nearly all actives have a fitted effect of over 45% in size; luciferase light after 4 h
Cruzain Triton: blocks cruzain activity in presence of Triton detergent; purified cruzain, Z-FR-AMC fluorescence, 0.01% Triton; hit rate 0.43% among 200,000; Potency, µM, for the others: max response, negative = inhibition, hits mostly inhibitors; P25779;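 note: plate controls were neutral wells for no effect and buffer without enzyme for full effect; nearly all actives have a fitted effect of over 40% in size; top concentration of the series not given in the record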
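Purified cruzain (1.5 nM final) was preincubated with compounds for 15 min at room temperature in 100 mM sodium acetate pH 5.5, 5 mM DTT, 0.01% Triton X-100. Reaction started with 2 uM Z-FR-AMC; AMC fluorescence change over 60 s gave activity.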
* = called active by the depositor; ? = inconclusive; & = joins results of further samples; [ ] = dose if it differs, or a comment. Unless noted, calls come from the whole dose curve; as a rule, active = well fitted curve in the direction sought with a large enough effect; inconclusive = small, poorly fitted or top-dose-only effect, or another doubt; inactive = no such curve, though single readings can be large; an effect the other way counts as inactive or inconclusive. Unless noted, % is set by controls: 0 for no effect and ±100 for the full control effect; potency is the fitted concentration of half-maximal effect. Some of the compounds tested, so the mix of outcomes need not match the whole.

1) CC(=O)N[C@@H](CC(=O)O)C(=O)N[C@@H](CCC(=O)O)C(=O)O
2) CNc1ncnc2ccc(-c3ccccc3CN(C)C)cc12
3) CC(C)NC(=O)N1CC[C@@]2(CCCN(C(=O)c3cccn3C)C2)C1
4) c1ccc(CNc2cc(-c3ccoc3)ncn2)cc1
5) CN(C)c1ccc(-c2ccc3ncnc(N(C)Cc4ccco4)c3c2)cc1
6) COc1ccccc1CN1CCC2(CC1)CCN(C(=O)c1cccn1C)CC2
screen / no.,1,2,3,4,5,6
StopGo reporter,-15%,-12%,-10%,3%,-16%,-3%
Cruzain inh noDet,-7%&-9%,-9%,0%,-25%,-6%,0%
Cruzain Triton,-5.6%&2.6%,0.0%,6.1%,3.3%,2.5%,-0.4%

7) CC[C@@H]1Cn2c(c3nc(-c4cc(Cl)cc(Cl)c4Cl)nc-3n(C)c2=O)N1
8) COc1ccc(C(=O)N2CCC[C@@]3(CCN(CC(C)C)C3)C2)cc1
9) N#Cc1ccccc1-c1ccc2ncnc(NCc3cccs3)c2c1
10) CC(=O)N1CCC2(CCCN(C(=O)Nc3cccc(F)c3)C2)CC1
11) COc1ccc(C(=O)N2CCC[C@@]3(CCN(C(=O)Nc4cccc(C#N)c4)C3)C2)cc1
12) O=c1c(-c2cccc(Cl)c2)nc2cncnc2n1Cc1ccccc1
screen / no.,7,8,9,10,11,12
StopGo reporter,-21%,-7%,-38%,1%,4%,-15%
Cruzain inh noDet,-16%,4%,-8%,1%,1%,-1%
Cruzain Triton,-15%,-2.1%,-13%,1.7%,0.1%,-1.0%

13) CN(Cc1cc(Br)cc(Br)c1N)C1CCCCC1
14) COc1ccc(-c2nc3cnc(Nc4cccc(OC)c4)nc3n(CCC#N)c2=O)cc1
15) CC[C@@]1(O)CC(O)c2c(cc3c(c2O)C(=O)c2c(O)ccc(O)c2C3=O)C1C(=O)OC (stereo partly drawn)
16) COc1ccccc1CN1CCC2(CC1)CCN(S(=O)(=O)c1ccccc1)CC2
17) Cc1cnc(CNc2cc(-c3cccc(C#N)c3)ncn2)cn1
18) c1ccc(N2CC3(CCNCC3)C2)nc1
screen / no.,13,14,15,16,17,18
StopGo reporter,-11%,-12%,-20%,-14%,-1%,-20%
Cruzain inh noDet,-2%,6%,-5%,-1%,-23%,-7%
Cruzain Triton,-2.9%,-2.8%,-3.2%,6.6%,-4.7%,-1.0%

19) COCC(=O)N1CCC2(CCCN(C(=O)Nc3ccc(OC)cc3)C2)CC1
20) COc1cccc(Cn2c(=O)c(-c3cn(C)c4ccccc34)nc3cnc(N4CCOCC4)nc32)c1
21) c1csc(CNc2ccnc(-c3ccoc3)n2)c1
22) COc1ccccc1CN1CC[C@@]2(CCCN(C(C)=O)C2)C1
23) O=C(c1cccc(F)c1)N1CCC[C@@]2(CCN(c3ccccc3)C2)C1
24) COc1ccc2c(c1)OC/C(=C/c1ccc(O)c(O)c1)C2=O
screen / no.,19,20,21,22,23,24
StopGo reporter,1%,-23%,9%,-6%,-22%,8%
Cruzain inh noDet,2%,-3%,-25%,-14%,-5%,-17%
Cruzain Triton,-2.3%,0.4%,-0.1%,-1.4%,-3.4%,-7.0%

25) COc1cc2c(cc1OC)-c1c(oc3cc(O)cc(O)c3c1=O)CO2
26) COc1ccc(Oc2ncc3nc(C)c(=O)n(Cc4ccc(F)cc4)c3n2)cc1
27) COc1ccccc1CNc1ccnc(-c2ccc(N(C)C)cc2)n1
28) O=C(c1csnn1)N1CCC2(CC1)CCN(C(c1ccccc1)c1ccccc1)CC2
29) CN1CCCC2(CCN(C(=O)c3cccc(F)c3)CC2)C1
30) CCCCC/C=C\C=C\[C@H](CCCCCCCC(=O)O)OO
screen / no.,25,26,27,28,29,30
StopGo reporter,3%,-23%,0%,-20%,-14%,-10%[0.463 µM]
Cruzain inh noDet,1%,12%,-13%,-15%,7%,0%
Cruzain Triton,-17%,-2.7%,-3.4%,3.9%,1.4%,3.2%

31) Cn1cc(-c2nc3cncnc3n(C3CC3)c2=O)c2ccccc21
32) COCCn1c(=O)c(-c2ccc(F)cc2)nc2cnc(OC)nc21
33) CC(C)NC(=O)N1CCC2(CC1)CCN(C(=O)c1cc(C(F)(F)F)cc(C(F)(F)F)c1)CC2
34) Cc1noc(C)c1-c1ccc2ncnc(Nc3ccccc3)c2c1
35) O=C(Nc1ccccc1)N1CCCC2(CCN(C(=O)c3ccco3)CC2)C1
36) O=C(Oc1ccccc1)N1CCC2(CC1)CCN(c1cccc(-c3ccccc3)c1)CC2
screen / no.,31,32,33,34,35,36
StopGo reporter,-17%,-24%,-16%,-7%,7%,-18%
Cruzain inh noDet,-11%,-4%,?,7%,9%,-1%
Cruzain Triton,1.8%,-5.6%,0.1%,1.0%,4.7%,-2.6%

37) CCCN(CCC)C[C@@H]1CCCCN1CCNC(=O)N1c2ccccc2C(=O)Nc2cccnc21
38) COC(=O)CC1C(C)(C)C(=O)C2CC3=C4CC(=O)OC(c5ccoc5)[C@]4(C)CCC3[C@@]1(C)C2=O (stereo partly drawn)
39) COc1ccc(-c2nc3cnc(OCc4ccccc4)nc3n(CCC#N)c2=O)cc1
40) Cc1cnc(CNc2nc(-c3ccc4c(c3)OCO4)nc3ccccc23)cn1
41) CCCCCCCC/C=C\CCCCCCCC(N)=O
42) CN(Cc1ccco1)c1ncncc1-c1cccc(C#N)c1
screen / no.,37,38,39,40,41,42
StopGo reporter,-18%,0%,-9%,40%[activator],-1%[6.7 µM],-8%
Cruzain inh noDet,-2%,6%,16%,5%,7%&-13%&10%,-10%
Cruzain Triton,-2.8%,-1.2%,0.9%,-4.0%,-4.4%&-0.6%&1.2%,2.6%

43) CCC(=O)OCC(=O)C1(OC(=O)CC)C(C)CC2C3C(Cl)CC4=CC(=O)C=C[C@@]4(C)C3C(O)C[C@@]21C (stereo partly drawn)
44) CCOc1ccc(Cc2nccc3cc(OCC)c(OCC)cc23)cc1OCC
45) COc1cccc(-c2cncnc2NCc2cnc(C)cn2)c1
46) COC(=O)C(c1ccccc1Cl)N1CCc2sccc2C1 (stereo not drawn)
47) NCC1OC(n2cnc3c(=O)[nH]c(N)nc32)C(O)C1O (stereo not drawn)
48) N[C@@H](C(=O)O)c1ccc(C(=O)O)c(C(=O)O)c1
screen / no.,43,44,45,46,47,48
StopGo reporter,-24%,-18%,-15%,-9%&-9%,-1%,-11%&-2%&-5%&-11%
Cruzain inh noDet,?,3%&-6%,7%,-3%&18%,-9%,3%&13%&5%
Cruzain Triton,3.1%,-7.2%&-1.6%,-0.4%,-1.1%&-1.5%,4.8%,1.5%&0.6%&-4.8%

49) CCCCCCCCCCCCCCCCOP(=O)([O-])OCC[N+](C)(C)C
50) COc1ccc(-n2c(=O)c(C)nc3cnc(N4CCOCC4)nc32)cc1
51) N[C@@]1(C(=O)O)CO[C@H]2[C@H](C(=O)O)[C@H]21
52) Cc1nc2cnc(Oc3ccccc3)nc2n(Cc2cccs2)c1=O
53) O=C(c1cnccn1)N1CCC2(CCCN(Cc3ccncc3)C2)CC1
54) c1ccc(COCCCc2cnc[nH]2)cc1
screen / no.,49,50,51,52,53,54
StopGo reporter,?,-9%,2%,-20%,-9%,-11%
Cruzain inh noDet,?,-8%,-3%,-15%,-1%,1%
Cruzain Triton,-0.8%,-2.2%,-2.2%,-2.6%,3.2%,-1.1%

55) COc1cc(C(=O)Oc2ccc3c(OC)c4ccoc4nc3c2OC)cc(OC)c1OC
56) N#Cc1ccc(CN2CCC3(CC2)CCN(C(=O)c2cccc(F)c2)CC3)cc1
57) COc1cccc(-c2nccc(NCc3cnc(C)cn3)n2)c1
58) O=C(O)P(=O)(O)O
59) COCCn1c(=O)cnc2cnc(Oc3cccc(Cl)c3)nc21
60) NC(=O)c1ncn(C2OC(CO)C(O)C2O)c1N (stereo not drawn)
screen / no.,55,56,57,58,59,60
StopGo reporter,0%,-20%,29%,10%,-13%,?
Cruzain inh noDet,-5%,-7%,1%,-5%,-2%,0%
Cruzain Triton,1.7%,4.1%,-2.4%,2.7%,-2.5%,4.3%

61) c1ccc(Oc2nc(NC3CCCCC3)c3[nH]cnc3n2)cc1
62) COc1ccc(Oc2ncc3ncc(=O)n(C4CC4)c3n2)cc1
63) O=C(Nc1cccc(F)c1)N1CCCC2(CCN(C(=O)c3csnn3)CC2)C1
64) Cc1cccc(CNc2ccnc(-c3ccccc3CN(C)C)n2)c1
65) Cc1cc(O)cc(O)c1C(=O)O
66) CCNc1ncc2nc(-c3cc(F)cc(F)c3)c(=O)n(C[C@H]3CCCO3)c2n1
screen / no.,61,62,63,64,65,66
StopGo reporter,-8%,-9%,-8%,-17%,9%,-4%
Cruzain inh noDet,2%,-11%,-1%,2%,-2%,9%
Cruzain Triton,0.0%,1.9%,1.8%,2.0%,-2.9%,9.1%

An excerpt from above in order of number of heavy atoms, ascending.
58) O=C(O)P(=O)(O)O
65) Cc1cc(O)cc(O)c1C(=O)O
54) c1ccc(COCCCc2cnc[nH]2)cc1
60) NC(=O)c1ncn(C2OC(CO)C(O)C2O)c1N (stereo not drawn)
57) COc1cccc(-c2nccc(NCc3cnc(C)cn3)n2)c1
64) Cc1cccc(CNc2ccnc(-c3ccccc3CN(C)C)n2)c1
53) O=C(c1cnccn1)N1CCC2(CCCN(Cc3ccncc3)C2)CC1
66) CCNc1ncc2nc(-c3cc(F)cc(F)c3)c(=O)n(C[C@H]3CCCO3)c2n1
screen / no.,58,65,54,60,57,64,53,66
StopGo reporter,10%,9%,-11%,?,29%,-17%,-9%,-4%
Cruzain inh noDet,-5%,-2%,1%,0%,1%,2%,-1%,9%
Cruzain Triton,2.7%,-2.9%,-1.1%,4.3%,-2.4%,2.0%,3.2%,9.1%

56) N#Cc1ccc(CN2CCC3(CC2)CCN(C(=O)c2cccc(F)c2)CC3)cc1
55) COc1cc(C(=O)Oc2ccc3c(OC)c4ccoc4nc3c2OC)cc(OC)c1OC
screen / no.,56,55
StopGo reporter,-20%,0%
Cruzain inh noDet,-7%,-5%
Cruzain Triton,4.1%,1.7%

More records:
67) Cc1nc2cnc(N3CCOCC3)nc2n(Cc2ccc(F)cc2)c1=O
68) CS(=O)(=O)N1CCC2(CCN(C(c3ccccc3)c3ccccc3)CC2)CC1
69) COc1cccc(Cn2c(=O)c(C)nc3cnc(OC)nc32)c1
70) O=C(c1cnccn1)N1CCC2(CCCN(Cc3ccccc3)C2)CC1
71) COc1cccc(Cn2c(=O)cnc3cnc(N4CCN(C)CC4)nc32)c1
72) CN(C)C(=O)c1ccc(-c2cncnc2Nc2ccccc2)cc1
screen / no.,67,68,69,70,71,72
StopGo reporter,-13%,-22%,-12%,-6%,-5%,-6%
Cruzain inh noDet,6%,-15%,3%,4%,-18%,15%
Cruzain Triton,1.0%,3.9%,-13%,-1.9%,-15%,0.5%

Profiles from above. Screens in order: StopGo reporter	Cruzain inh noDet	Cruzain Triton
Listed for CN(C)C(=O)c1ccc(-c2cncnc2Nc2ccccc2)cc1 → -6%	15%	0.5%
Listed for Cc1nc2cnc(N3CCOCC3)nc2n(Cc2ccc(F)cc2)c1=O → -13%	6%	1.0%

Later entries.
73) CC(C)=CC1C(C(=O)O)C1(C)C (stereo not drawn)
74) COc1c(CC(=O)c2cc3c(cc2O)OC(C)(C)C(O)C3)ccc2c1C=CC(C)(C)O2 (stereo not drawn)
75) COc1ccc2cc1Oc1ccc(cc1)CC1c3cc(c(OC)cc3CCN1C)Oc1c(OC)c(OC)cc3c1C(C2)N(C)CC3 (stereo not drawn)
76) COc1cccc(-c2cncnc2NCc2ccc(OC)cc2OC)c1
77) Cc1noc(C)c1C(=O)N1CCC[C@@]2(CCN(C(=O)Nc3cccc(C#N)c3)C2)C1
78) COc1ccc(CNc2cc(-c3cccnc3)ncn2)c(OC)c1
screen / no.,73,74,75,76,77,78
StopGo reporter,-7%,0%,5%,-28%,-4%,-22%
Cruzain inh noDet,-2%,?,0%,1%,-2%,2%
Cruzain Triton,2.6%,2.0%,11%,0.5%,-3.5%,-1.1%
